Source: PubChem
VACV mCherry inh – vaccinia inhibition (mCherry reporter); Vaccinia virus mCherry reporter infection, fluorescence; about a quarter of the inactives have no number; Potency, µM (titrated, usually from 36.5 µM), without a hit: at the top dose activity change, negative = inhibition, most hits filed as inhibitors; 310,000 tested, 0.63% active; AID 720579; active = well fitted inhibition curve with a large enough effect; inconclusive = small, poorly fitted or top-dose-only effect; inactive = no such curve, though single readings can be large or run the other way; tested in A549 cells; further: nearly all actives have a fitted effect of over 35% in size; inactives centre near -10
Vaccinia Venus – vaccinia inhibition (Venus reporter). Vaccinia virus Venus reporter expression, fluorescence. Potency, µM (series often up to 36.5 µM), without a hit: top-dose activity change, negative = inhibition, usual class: inhibitors. 330,000 tested, 0.46% active. AID 720580; active means well fitted inhibition curve with a large enough effect; inconclusive means small, poorly fitted or top-dose-only effect; inactive means no such curve, though single readings can be large or run the other way; tested in A549 cells; further: nearly all actives have a fitted effect of over 30% in size; inactives centre near -10
The depositor's hits bear a star; & = joins results of further samples; [ ] = another dose, or the depositor's remark. On the % scale 0 is the no-effect control and ±100 the full control effect; potency means the concentration at half of the fitted maximal effect.

Screening CCCCc1nc(N2CCNCC2)c(C#N)c2c1CSC(C)(C)C2 returned VACV mCherry inh -14% and Vaccinia Venus -11%.
O=C(O)CN1CCN(Cc2ccc(Cl)cc2)C1=O was read as VACV mCherry inh -12% and Vaccinia Venus 1%.
Cc1cc(NS(=O)(=O)c2ccc(NC(=O)CCCOc3cccc(C)c3C)cc2)no1 was read as VACV mCherry inh -5% and Vaccinia Venus 4%.
`OC12CCCCC1C(c1ccc3c(c1)OCO3)N(Cc1ccccc1F)CC2` (configuration not stated) gave VACV mCherry inh inactive and Vaccinia Venus -2%.
For Cc1ccc2nc(C(C)(C)C)c(Cc3cccc(F)c3)n2c1 the results were VACV mCherry inh inactive and Vaccinia Venus -7%.
CC(C)Cn1c2nc3ccccc3nc2c2c(=O)n(CCN3CCOCC3)cnc21 was read as Vaccinia Venus -10%.
For CC(C)CCn1c(SCC(=O)NC2CCS(=O)(=O)C2)nc2cc(Cl)ccc2c1=O (configuration not stated) the results were VACV mCherry inh -1% and Vaccinia Venus -6%.
For O=C(NC1CCCCC1)C1c2ccccc2OCC(=O)N1CCc1ccccc1 (configuration not stated) the results were VACV mCherry inh inactive and Vaccinia Venus -9%.
Screening O=C(NC(=S)Nc1ccccc1N1CCCC1)c1ccccc1[N+](=O)[O-] returned VACV mCherry inh -25% and Vaccinia Venus -7%.
COC(=O)c1nc2ccc(N3CCOCC3)cc2c(C)c1C(=O)OC was read as VACV mCherry inh -2% and Vaccinia Venus -17%.
For COc1ccc(S(=O)(=O)N(CC(=O)NCc2ccco2)c2ccc(C)cc2)cc1OC the results were VACV mCherry inh -20% and Vaccinia Venus -21%.
For Cc1cc(C)cc(NC(=O)c2ccc3c(O)c(S(=O)(=O)c4ccccc4)c(=O)[nH]c3c2)c1 the results were VACV mCherry inh -10% and Vaccinia Venus -14%.
CC(O)c1nc2ccccc2n1CC(=O)Nc1ccc2c(c1)OCCO2 (configuration not stated) was read as VACV mCherry inh inactive and Vaccinia Venus -11%.
CCn1c(=NC(=O)CSC(C)=O)sc2cc(OC)ccc21 was read as VACV mCherry inh -9% and Vaccinia Venus -3%.
CN(C)c1ccc(N2C(=NC(=O)CCC3CCCC3)SC3CS(=O)(=O)CC32)cc1 (configuration not stated) was read as VACV mCherry inh inactive and Vaccinia Venus -16%.
Screening COc1cc([N+](=O)[O-])ccc1NC(=O)NCC1CCN(Cc2ccc(Cl)cc2)CC1 returned VACV mCherry inh -28% and Vaccinia Venus inconclusive.
Screening CSc1nc2oc3c(c2c2nncn12)CC(C)(C)SC3 returned Vaccinia Venus -12%.
For Cc1ccc(C)c(NC(=O)c2ccc3c(O)c(S(=O)(=O)c4ccc(Cl)cc4)c(=O)[nH]c3c2)c1 the results were VACV mCherry inh -6% and Vaccinia Venus -7%.
COc1ccccc1NC(=O)c1c(NCc2ccc(OC)c(OC)c2OC)sc2c1CCCC2 was read as VACV mCherry inh -13% and Vaccinia Venus -10%.
`C=C(C)CSc1nnc([C@H](CCSC)NC(=O)OC(C)(C)C)o1` gave Vaccinia Venus -10%.
`c1ccc(OCCSc2nc3ccccc3o2)cc1` gave VACV mCherry inh -16% and Vaccinia Venus -2%.
For CCc1ccc(NC(=O)C2CCCN(S(=O)(=O)c3cccs3)C2)cc1 (configuration not stated) the results were VACV mCherry inh inconclusive and Vaccinia Venus -10%.
For Cc1cc(C(=O)NCc2cccs2)nn1C the results were VACV mCherry inh -19%[7.34 µM] and Vaccinia Venus -8%[7.34 µM].
Screening CCSc1cc(N2CCOCC2)nc(-c2ccc(Cl)cc2)n1 returned VACV mCherry inh -13% and Vaccinia Venus 5%.
CC(C)Cn1cc(NC(=O)NCc2ccc(Cl)cc2)c2ccccc2c1=O was read as VACV mCherry inh -1% and Vaccinia Venus 10%.
`COc1ccc(/C=N/N2CCN(c3ccc(Cl)cc3)CC2)cc1` gave VACV mCherry inh inactive and Vaccinia Venus -14%.
`CC(C)/C(=N\NS(=O)(=O)c1ccc(Br)cc1)c1cccs1` gave VACV mCherry inh 0% and Vaccinia Venus -3%.
For COC(=O)c1ccccc1NC(=O)c1ccc(COc2ccc3c(c2)CCC3)cc1 the results were VACV mCherry inh inactive and Vaccinia Venus -5%.
For COc1ccccc1NS(=O)(=O)c1cc(NC(=S)NCC2CCCO2)ccc1C (configuration not stated) the results were VACV mCherry inh -8% and Vaccinia Venus -2%.
`COc1ccc(C(=O)Nc2ccc(S(=O)(=O)N3CCOCC3)cc2)cc1` gave VACV mCherry inh -17% and Vaccinia Venus -12%.
For CCOc1ccccc1CN1CCNC(=O)C1CC(=O)NC1CCCCC1 (configuration not stated) the results were VACV mCherry inh -14% and Vaccinia Venus -7%.
`O=S1c2ccccc2Oc2ccccc21` gave VACV mCherry inh -10% and Vaccinia Venus 3%.
For O=C(Cc1cccc(NC(=O)C2CCCN(C(=O)CCc3ccccc3)C2)c1)Nc1cccc(C(=O)N2CCCC2)c1 (configuration not stated) the results were VACV mCherry inh -16% and Vaccinia Venus -23%.
For Cc1ccc(C)c(N2CCN(c3nccn4nc(-c5ccc(Br)cc5)cc34)CC2)c1 the results were VACV mCherry inh -21% and Vaccinia Venus -9%.
`Cc1c(CCO)c(=O)[nH]n1S(=O)(=O)c1ccc(F)cc1` gave VACV mCherry inh -11% and Vaccinia Venus 1%.
CCOC(=O)C1(Cc2cccc(F)c2)CCN(C(=O)c2cnccn2)CC1 was read as VACV mCherry inh -3% and Vaccinia Venus -10%.
For CCC(=O)NS(=O)(=O)c1cccnc1Nc1ccc(Cl)cc1 the results were Vaccinia Venus inconclusive.
`Cn1c(=O)c2c(ncn2CC(=O)OCC(=O)c2ccc(F)c(F)c2)n(C)c1=O` gave VACV mCherry inh inactive and Vaccinia Venus -5%.
Screening O=S(=O)(NCc1ccc2c(c1)OCO2)c1cnc[nH]1 returned VACV mCherry inh -4% and Vaccinia Venus -6%.
`Cc1cccc(NC(=O)c2cc([N+](=O)[O-])ccc2N2CCCCC2)n1` gave VACV mCherry inh inactive and Vaccinia Venus -10%.
For O=S(=O)(N=C(NS(=O)(=O)c1ccc(Cl)cc1)c1ccccc1)c1ccc(Cl)cc1 the results were VACV mCherry inh -21% and Vaccinia Venus -20%.
Screening COc1cccc(OC)c1C(=O)N=c1sc2cc(S(C)(=O)=O)ccc2n1C returned VACV mCherry inh inactive and Vaccinia Venus -16%.
Screening S=C1SCN(Cc2cccs2)CN1Cc1cccs1 returned VACV mCherry inh -3% and Vaccinia Venus -11%.
CCOC(=O)N1CC=C2C(C#N)=C(N)C(C#N)(C#N)[C@H](c3ccc(OC(C)C)c(OCC)c3)[C@H]2C1 was read as Vaccinia Venus -21%.
Screening COc1ccc(-c2nc(Cn3c(SCc4ccc(F)cc4)nc4ccncc43)c(C)o2)cc1OC returned VACV mCherry inh 10% and Vaccinia Venus -11%.
O=C(COc1ccccc1)N1CCN(S(=O)(=O)Cc2ccccc2)CC1 was read as VACV mCherry inh -14% and Vaccinia Venus -11%.
Screening COc1ccc(NC(=O)CSc2nc(N)c3cc4c(nc3n2)CCCC4)cc1 returned VACV mCherry inh -21% and Vaccinia Venus -29%.
Cc1ccc(CN2C(=O)c3ccccc3C2C(=O)NCc2cccnc2)cc1 (configuration not stated) was read as VACV mCherry inh 10% and Vaccinia Venus -4%.
For COc1ccc(C2=NOC(CN3C(=O)c4ccccc4S3(=O)=O)C2)cc1 (configuration not stated) the results were VACV mCherry inh -3% and Vaccinia Venus -20%.
`O=C(O)COc1nsnc1N1CCOCC1` gave VACV mCherry inh -2% and Vaccinia Venus -1%.
Screening O=C1CC(C(=O)NC2CCCCC2)C(c2ccccc2)O1 (configuration not stated) returned Vaccinia Venus -14%.
COc1ccc(C2CC(c3cccs3)=NN2c2nc(-c3ccccc3)cs2)cc1OC (configuration not stated) was read as VACV mCherry inh inactive and Vaccinia Venus -20%.
CC(C)CCNC(=O)CN(Cc1ccccc1)C(=O)CCC(=O)Nc1ccccn1 was read as VACV mCherry inh -6% and Vaccinia Venus -2%.
Screening CCOC(=O)N/N=C\c1ccc(-c2cccc(C(F)(F)F)c2)o1 returned VACV mCherry inh -30% and Vaccinia Venus -17%.
CCOCCCNC(=O)NC(C)c1c(-n2cccc2)sc2c1CCN(CC)C2 (configuration not stated) was read as VACV mCherry inh -8% and Vaccinia Venus 4%.
For C[C@H](CO)N1C[C@H](C)[C@@H](CN(C)Cc2ccc(C(=O)O)cc2)Oc2ccc(NC(=O)Cn3cnnn3)cc2C1=O the results were VACV mCherry inh inactive and Vaccinia Venus -5%.
N#Cc1cc2cc3c(cc2nc1SCC(=O)OC1CCCCC1)OCO3 was read as VACV mCherry inh -10% and Vaccinia Venus -9%.
CC(OC(=O)c1cccc(S(=O)(=O)N(C)C)c1)C(=O)NCC(=O)Nc1ccc(F)c(F)c1F (configuration not stated) was read as VACV mCherry inh inactive and Vaccinia Venus -21%.
`O=C(CSc1nnnn1-c1ccccc1)N1CCc2ccccc21` gave VACV mCherry inh inactive and Vaccinia Venus -4%.
Screening CC(OC(=O)CCN=C1NS(=O)(=O)c2ccccc21)C(=O)N(C)c1ccccc1 (configuration not stated) returned VACV mCherry inh inactive and Vaccinia Venus -4%.
For COCCCNC(=O)c1sc2ncccc2c1-n1cccc1 the results were VACV mCherry inh -5% and Vaccinia Venus -5%.
Screening CSc1nc(N)nc2c1ncn2CC(=O)NCCNc1ccc([N+](=O)[O-])cn1 returned VACV mCherry inh -10% and Vaccinia Venus 3%.
Cc1cccc(OCCn2nnc3ccccc32)c1C was read as VACV mCherry inh -8% and Vaccinia Venus -23%.
COc1ccc([C@@H]2[C@@H]3C(=O)N(C(C)(C)C)C(=O)[C@@H]3[C@]3(Cc4ccccc4)C(=O)N(c4ccc(C(F)(F)F)cc4)C(=O)N23)cc1 was read as VACV mCherry inh inactive and Vaccinia Venus -15%.
For CCCCN1C(=O)c2ccc(C(=O)NCCN3C(=O)S/C(=C\c4cccnc4)C3=O)cc2C1=O the results were VACV mCherry inh -17% and Vaccinia Venus -9%.
`[O-]C1=N/[N+](=C/c2ccccc2Cl)CC1` gave VACV mCherry inh -28% and Vaccinia Venus -17%.
`COC(=O)c1cc(-c2ccc(C)cc2)n[nH]1` gave VACV mCherry inh inactive and Vaccinia Venus -1%.
Screening O=C(O)C1C2CCC(O2)C1C(=O)NCCC1=CCCCC1 (configuration not stated) returned VACV mCherry inh -2% and Vaccinia Venus -7%.
Cc1ccc(S(=O)(=O)N(C)C)cc1NC(=O)CSc1nc2ccccc2c(=O)n1CC1CCCO1 (configuration not stated) was read as VACV mCherry inh inconclusive and Vaccinia Venus -27%.
For C=C(Br)Cn1cnc2ccccc21 the results were VACV mCherry inh -7% and Vaccinia Venus -7%.
O=C(NCc1ccncc1)c1ccc(N2CCCC2)c([N+](=O)[O-])c1 was read as VACV mCherry inh -15% and Vaccinia Venus -7%.
Cc1ccsc1C(=O)c1sccc1C was read as VACV mCherry inh 1% and Vaccinia Venus 1%.
`CCOC(=O)c1ccc(N(CC(=O)NCC2CCCO2)C(=O)CCC(=O)Nc2cc(C)on2)cc1` (configuration not stated) gave VACV mCherry inh -3% and Vaccinia Venus -2%.
`CC1CCN(C(=O)COC(=O)CCC(=O)c2cccs2)CC1` gave VACV mCherry inh inactive and Vaccinia Venus -4%.
CSc1ncc(/C=C2/C(=O)NC(=O)N(c3ccc(C)cc3)C2=O)cn1 was read as VACV mCherry inh 0% and Vaccinia Venus -7%.
Screening CC1CC(OC(=O)C(O)c2ccccc2)CC(C)(C)N1C (configuration not stated) returned VACV mCherry inh -13%&-14% and Vaccinia Venus -1%&-3%.
Screening O=C(OCC(=O)N1CCN(c2ccccc2)CC1)c1ncc(Cl)c(Cl)c1Cl returned VACV mCherry inh -12% and Vaccinia Venus -1%.
`O=C(O)c1ccc(Cl)c(S(=O)(=O)N(Cc2ccccc2)c2ccc(Cl)cc2)c1` gave VACV mCherry inh 10% and Vaccinia Venus 2%.

Molecules from the list above containing a thiophene ring, fused or not, in the order listed:
COc1ccccc1NC(=O)c1c(NCc2ccc(OC)c(OC)c2OC)sc2c1CCCC2 was read as VACV mCherry inh -13% and Vaccinia Venus -10%.
For CCc1ccc(NC(=O)C2CCCN(S(=O)(=O)c3cccs3)C2)cc1 (configuration not stated) the results were VACV mCherry inh inconclusive and Vaccinia Venus -10%.
For Cc1cc(C(=O)NCc2cccs2)nn1C the results were VACV mCherry inh -19%[7.34 µM] and Vaccinia Venus -8%[7.34 µM].
`CC(C)/C(=N\NS(=O)(=O)c1ccc(Br)cc1)c1cccs1` gave VACV mCherry inh 0% and Vaccinia Venus -3%.
Screening S=C1SCN(Cc2cccs2)CN1Cc1cccs1 returned VACV mCherry inh -3% and Vaccinia Venus -11%.
COc1ccc(C2CC(c3cccs3)=NN2c2nc(-c3ccccc3)cs2)cc1OC (configuration not stated) was read as VACV mCherry inh inactive and Vaccinia Venus -20%.
CCOCCCNC(=O)NC(C)c1c(-n2cccc2)sc2c1CCN(CC)C2 (configuration not stated) was read as VACV mCherry inh -8% and Vaccinia Venus 4%.
For COCCCNC(=O)c1sc2ncccc2c1-n1cccc1 the results were VACV mCherry inh -5% and Vaccinia Venus -5%.
Cc1ccsc1C(=O)c1sccc1C was read as VACV mCherry inh 1% and Vaccinia Venus 1%.
`CC1CCN(C(=O)COC(=O)CCC(=O)c2cccs2)CC1` gave VACV mCherry inh inactive and Vaccinia Venus -4%.
